Compound activity as filed in PubChem BioAssay.
BmaI1 enzyme: BmaI1 acyl-homoserine lactone synthase inhibition – biochemical, fluorescence intensity, with counterscreen (AID 720554); BmaI1 enzyme assay, fluorescence intensity; stronger effect = higher value; test concentration not given here; a few actives read low; strong numbers were not always called active; inhibition, %; hit rate 0.4% among 12,000;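 active means both replicates within 2 robust z-scores of the inhibited control and a quiet counterscreen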;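 further: 0% = uninhibited enzyme and 100% = inhibited control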
BmaI1 enzyme counterscreen: also measured in BmaI1 enzyme; calls as there; inhibition, %; measured here: counterscreen; design of the counterscreen not given here;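 first of two replicates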
An asterisk follows results filed as active.

SMILES	BmaI1 enzyme	BmaI1 enzyme counterscreen
O=C(C1COc2ccccc2O1)N(Cc1ccc2c(c1)OCO2)C1CCCC1 (configuration not stated)	10	6
O=C(Nc1ccccc1)C1CCCCN1S(=O)(=O)c1ccccc1 (configuration not stated)	14	17
O=C(CSc1nc2ccccc2s1)OCc1nnc(-c2ccccc2)o1	11	2
Cc1cc(C)cc(C(=O)N(C)CC(=O)Nc2ccc(F)cc2)c1	6	11
COc1cc2c(cc1OC)CN(C(=O)Cc1cccs1)CC2	-8	-2
CC1CC(C)CN(C(=O)C(C)N(C)CC(=O)Nc2ccccc2Cl)C1 (configuration not stated)	5	-2
O=C(O)c1cc(S(=O)(=O)NCC2COc3ccccc3O2)ccc1Cl (configuration not stated)	13	10
CNCC(=O)N1CCOCC1	-2	0
O=C(COC(=O)C(Cc1ccccc1)N1C(=O)c2ccccc2C1=O)Nc1ccc2[nH]c(=O)[nH]c2c1 (configuration not stated)	31	18
Cc1cc(C)cc(-n2ncc3c(OCC(=O)N4CCCCC4)ncnc32)c1	16	2
Cc1ccccc1N(Cc1nnc2n1CCCCC2)C(=O)Nc1ccc(F)cc1	16	6
O=C(NCC1CCCC(CNC(=O)Nc2ccc3c(c2)OCO3)C1)Nc1ccc2c(c1)OCO2 (configuration not stated)	14	-2
CC1(NC(=O)c2cn(-c3ccccc3)nc2-c2cccnc2)CCS(=O)(=O)C1 (configuration not stated)	9	2
COc1ccc(C2=CC(c3ccc(C)o3)n3nnnc3N2)cc1OC (configuration not stated)	52	-1
CN(C(=O)COC(=O)C12CC3CC(CC(C3)C1)C2)C1CCS(=O)(=O)C1 (configuration not stated)	-6	-10
CCCCn1c(CCC(=O)O)nc2cc(S(=O)(=O)N(C)C)ccc21	3	-2
O=C1CN(N=Cc2ccc([N+](=O)[O-])o2)C(=O)N1	-11	-6
NS(=O)(=O)Cc1noc2ccccc12	12	20
N#Cc1ccsc1NC(=O)COC(=O)CSc1nnc(-c2ccc(F)cc2)n1-c1ccccc1	4	1
CCn1c(CCC(=O)Nc2ccc(N3CCOCC3)cc2)nc2cc(S(=O)(=O)N(C)C)ccc21	21	-2
CC1CCCC(NC(=O)Cn2ncc(Cl)c(Cl)c2=O)C1C (configuration not stated)	6	9
CC1(CSc2ccccc2C(=O)O)NC(=O)NC1=O (configuration not stated)	6	6
Cc1ccc(/C(O)=C/c2nc3ccccc3[nH]2)cc1	-11	-12
COc1ccccc1/C=N/OCC(=O)NCc1ccc2c(c1)OCO2	16	4
c1csc(-c2nc(NCCCN3CCOCC3)c3ccccc3n2)c1	17	10
C/C(N)=C(/C#N)C(=O)CSc1nc2ccc(Br)cc2c(=O)n1Cc1ccco1	-9	-11
Cc1cc(C(=O)OCc2cc(Cl)cc3c2OCOC3)c(C)o1	18	11
c1cc2c3c(cccc3c1)C(N1CCCCCC1)=N2	6	11
CC(C(=O)NCC1CCCCC1)N1CCN(S(=O)(=O)/C=C/c2ccccc2)CC1 (configuration not stated)	0	2
COc1ccc2c(c1)c(CC(=O)O)c(C)n2C(=O)c1ccc(Cl)cc1	-3	-1
COC(=O)c1cnc(N)s1	17	5
Cc1cc(C)c(C)c(S(=O)(=O)N2CCC(C(=O)N(C)Cc3nc4ccccc4c(=O)[nH]3)CC2)c1C	22	4
CCCCn1c(CC(=O)O)nc2cc(S(=O)(=O)N3CCOCC3)ccc21	10	-6
CC(C)(O)[C@@H]1[C@H]2OC(=O)[C@@H]1[C@]1(O)C[C@H]3O[C@]34C(=O)O[C@H]2[C@]14C (tested in a mixture with another compound)	0	8
O=C(CSc1ccc2c(c1)OCCO2)Nc1ccccc1	12	0
O=C(Nc1nc(-c2ccc3c(c2)OCO3)cs1)c1cc2ccccc2o1	18	12
CCCCn1c(N)c(N2CCOCC2)c(=O)n(CC(=O)Nc2ccc(S(=O)(=O)N(CC)CC)cc2)c1=O	15	6
CC1(C)C2CC=C(COCC(O)CN3CCN(S(=O)(=O)c4ccccc4)CC3)C1C2 (configuration not stated)	26	12
N#Cc1ccccc1NC(=O)COC(=O)c1ccc2c(c1)OCCO2	16	6
Cc1csc(C(C#N)C(=O)CSc2nc(-c3ccccc3)c(-c3ccccc3)o2)n1 (configuration not stated)	7	-2
Cc1nnc(SCC(=O)N2N=C3/C(=C/c4cccs4)CCCC3C2c2cccs2)n(N)c1=O (configuration not stated)	3	-4
Cc1cc(O)c(CN2CCN(S(=O)(=O)c3cccc(Br)c3)CC2)cc1C	-8	-6
Cc1cc(C(=O)N/N=C2\CC(=O)c3ccccc32)c(C)o1	-7	-40
O=C(Cc1c[nH]c2ccccc12)OCC(=O)N1CCCc2ccccc21	12	7
CN(CC(=O)Nc1ccc(N2CCOCC2)cc1)C(=O)Cc1ccccc1	0	3
CN(C)CC/C=C1\c2ccccc2COc2ccccc21	-2	26
COc1ccc(C(=O)COC(=O)c2ccco2)cc1OC	-2	7
Cc1cccc(Nc2ccncc2S(=O)(=O)NC(=O)NC(C)C)c1	6	8
Cc1cc2oc(=O)cc(Cn3nnc(-c4ccc(F)cc4)n3)c2cc1C	0	0
COC(=O)c1nn(C)c(=O)c2ccccc12	16	10

(next part)
SMILES	BmaI1 enzyme	BmaI1 enzyme counterscreen
Cc1cc(C(=O)N2CCC(C)CC2)c(C)n1-c1ccc(F)cc1	22	12
CC1(NCC(=O)N2CCN(S(=O)(=O)c3ccc4ccccc4c3)CC2)CCS(=O)(=O)C1 (configuration not stated)	-16	4
CC(C)N(Cc1nnc(-c2ccc(Cl)cc2)o1)C(=O)C1COc2ccccc2O1 (configuration not stated)	-2	-1
CC(=O)N1CCN(C(=O)c2sccc2-c2ccccc2)CC1	17	9
Cc1ccc2c(COC(=O)c3nc(-c4ccccc4)oc3C)cc(=O)oc2c1	-11	-10
Cn1c(C(C#N)C(=O)Cc2c(F)cccc2Cl)nc2ccccc21 (configuration not stated)	12	6
COc1ccc(OCC(=O)NC2Sc3c(OC)ccc(OC)c3N2C)cc1 (configuration not stated)	-2	-5
NC(=O)COC(=O)c1cccnc1SCC(=O)Nc1ccccc1OC(F)F	10	2
N#C/C(=C\c1cn[nH]c1-c1cccc(Br)c1)C(=O)O	10	4
CCN(CC(=O)Nc1ccc2c(c1)OCCO2)c1nnnn1-c1ccccc1	-2	-8
O=C(OCc1nnc(-c2ccccc2)o1)c1ccc2c(=O)n3c(nc2c1)CCCCC3	-6	-2
CC1CC(C)CN(C(=O)COC(=O)c2cccnc2Nc2ccccc2F)C1 (configuration not stated)	-3	-6
c1csc(CN2CCN(c3nc(CN4CCOCC4)nc4sc5c(c34)CCC5)CC2)c1	3	-4
CCOc1ccc(/C=N/N2C(C)CCCC2C)cc1 (configuration not stated)	8	4
O=C(OCC(=O)C12CC3CC(CC(C3)C1)C2)c1ccc(-n2cnnn2)cc1	24	10
O=C(Nc1nc2ccccc2[nH]1)C1CC1	14	8
COC(=O)C(Cc1ccccc1)NC(=O)c1c(-c2ccccc2)noc1C (configuration not stated)	6	6
CC1CN(CC(O)COC2CCCc3ccccc32)CC(C)O1 (configuration not stated)	4	-3
C/C(N)=C(/C#N)C(=O)CSc1nc(C)nc2ccccc12	21	5
CC(C)(C)NC(=O)[C@@H]1C[C@@H]2CCCC[C@@H]2CN1C[C@@H](O)[C@H](Cc1ccccc1)NC(=O)[C@H](CC(N)=O)NC(=O)c1ccc2ccccc2n1	9	11
CNC(=O)CSc1nnc(-c2ccccc2OC)n1CCc1ccccc1	10	14
CC1CCCCC1NC(=O)COC(=O)c1cc(-c2ccco2)nc2ccccc12 (configuration not stated)	35	6
Cc1ccc(-c2csc(NC(=O)C3(c4ccccc4)CC3)n2)s1	20	20
CC1CCC(N(C)Cc2nc3ccc(Cl)cc3n2CCO)CC1 (configuration not stated)	0	-2
Cc1ccc2nc3c(c(C(=O)OC4CCOC4=O)c2c1)CCCC3 (configuration not stated)	18	18
COc1ccccc1CNC(=O)c1cccc(F)c1	-6	-2
Cc1ccc(-c2nnn(CCOc3ccccc3Cl)n2)cc1	9	2
COc1ccccc1NC(=O)c1c(C)nc(SCC(=O)OC(C)C)c(C#N)c1-c1ccco1	7	8
COc1cc(NC(=O)C(C)OC(=O)C23CC4CC(CC(NC(C)=O)(C4)C2)C3)cc(OC)c1 (configuration not stated)	-6	-2
CN(C)C(CNC(=O)c1ccccc1C(F)(F)F)c1ccco1 (configuration not stated)	14	7
COc1ccc(N2CCN(Cn3cnc4ccccc43)CC2)cc1	-26	-22
CCOC(=O)C1CCCN(Cn2ncn(C)c2=S)C1 (configuration not stated)	34	34
O=C(CCc1nc2ccccc2o1)Nc1cccc(-n2cnnn2)c1	16	6
CC(C)c1ccc(-c2noc(COC(=O)c3c[nH]c4ccccc34)n2)cc1	22	12
CCCn1nc(C(=O)Nc2nc3ccccc3[nH]2)c2ccccc2c1=O	12	0
CCN(CC)S(=O)(=O)c1ccc2c(c1)nc(-c1ccccc1)n2C	4	-4
O=C(O)c1cccnc1Sc1cccc(C(F)(F)F)c1	16	7
CCC(=O)OCC(=O)Nc1ccc2c(c1)c1ccccc1n2CC	3	-1
O=C(COc1ccc(OCc2ccccc2)cc1)NC1CN2CCC1CC2 (configuration not stated)	12	8
CCOC(=O)c1c(C)oc(NC(=O)CSc2nc(Cc3ccccc3)c(C)[nH]2)c1C(=O)OCC	12	0

15 entries from above, ordered by molar mass, ascending:
SMILES	BmaI1 enzyme	BmaI1 enzyme counterscreen
COc1ccccc1CNC(=O)c1cccc(F)c1	-6	-2
CCOC(=O)C1CCCN(Cn2ncn(C)c2=S)C1 (configuration not stated)	34	34
Cc1ccc(-c2nnn(CCOc3ccccc3Cl)n2)cc1	9	2
CCC(=O)OCC(=O)Nc1ccc2c(c1)c1ccccc1n2CC	3	-1
Cc1ccc2nc3c(c(C(=O)OC4CCOC4=O)c2c1)CCCC3 (configuration not stated)	18	18
CN(C)C(CNC(=O)c1ccccc1C(F)(F)F)c1ccco1 (configuration not stated)	14	7
O=C(CCc1nc2ccccc2o1)Nc1cccc(-n2cnnn2)c1	16	6
CC1CCC(N(C)Cc2nc3ccc(Cl)cc3n2CCO)CC1 (configuration not stated)	0	-2
Cc1ccc(-c2csc(NC(=O)C3(c4ccccc4)CC3)n2)s1	20	20
CCN(CC)S(=O)(=O)c1ccc2c(c1)nc(-c1ccccc1)n2C	4	-4
CCCn1nc(C(=O)Nc2nc3ccccc3[nH]2)c2ccccc2c1=O	12	0
CC(C)c1ccc(-c2noc(COC(=O)c3c[nH]c4ccccc34)n2)cc1	22	12
O=C(COc1ccc(OCc2ccccc2)cc1)NC1CN2CCC1CC2 (configuration not stated)	12	8
COc1cc(NC(=O)C(C)OC(=O)C23CC4CC(CC(NC(C)=O)(C4)C2)C3)cc(OC)c1 (configuration not stated)	-6	-2
CCOC(=O)c1c(C)oc(NC(=O)CSc2nc(Cc3ccccc3)c(C)[nH]2)c1C(=O)OCC	12	0

Further results follow:
SMILES	BmaI1 enzyme	BmaI1 enzyme counterscreen
O=C1Cc2cc(C(=O)CSc3nnc(C4CC4)n3-c3ccccc3)ccc2N1	14	10
Cc1cc(=O)oc2cc(OCC(=O)N(c3ccccc3)C(C)C)ccc12	10	4
COc1cc(N)c(Cl)cc1C(=O)OCC(=O)NC1(C#N)CCCCC1	20	2
Cc1ccc(CN(C)C(=O)c2ccc(-c3ccccc3)cc2)o1	2	-1
Cc1cc(C(=O)Cn2cc(S(=O)(=O)N(C)C)ccc2=O)c(C)n1C1CCS(=O)(=O)C1 (configuration not stated)	30	12
CSc1ccccc1C(=O)NC1CC1	5	2
COc1cccc(N(C)C(=O)c2cccc(I)c2)n1	1	0
COc1cccc(C(N)=O)c1O	32	-66
COc1ccc(-c2nnc(SCC(=O)NC(N)=O)n2C2CCCCC2C)cc1 (configuration not stated)	20	11
O=C(CNC(=O)C1CCCCC1)Nc1ccccc1N1CCOCC1	-1	0
CC(Sc1nnc(C(F)(F)F)n1N)C(=O)N(C)C1CCCCC1 (configuration not stated)	16	3
CC(C(=O)Nc1ccc(S(=O)(=O)N2CCCC2)cc1)N(C)Cc1ccc(F)cc1 (configuration not stated)	8	7
CCCCCCn1c(=S)[nH]c2ccccc2c1=O	20	15
O=C(c1ccccc1)c1cc(Cl)ccc1NCC(=O)N1CCOCC1	2	-5
O=C(NCc1ccco1)c1ccccc1NCC(=O)N1CCCc2ccccc21	-8	-14
O=C(c1ccc(S(=O)(=O)N2CCCCC2)cc1)N(c1ccccn1)C1CCCCC1	16	20
CC(Sc1cccc[n+]1[O-])C(=O)NCC1CCCCC1 (configuration not stated)	3	-7
Cc1nc(CC(=O)N/N=C/c2ccc(CSC(F)F)o2)cs1	33	9
COc1cccc2c1C(=O)c1c(O)c3c(c(O)c1C2=O)C[C@@](O)(C(C)=O)C[C@@H]3OC1CC(N)C(O)C(C)O1 (some centres not stated)	60	-11
COC(=O)c1c(C)[nH]c(C(=O)C(C)OC(=O)c2ccccc2NS(=O)(=O)c2ccc3[nH]c(=O)[nH]c3c2)c1C (configuration not stated)	2	2
COCCNc1nc(-c2ccc(S(=O)(=O)N3CCCCC3)cc2)cs1	32	12
CCn1c(COC(=O)C2CSC3(C)CCC(=O)N23)nc2cc(S(=O)(=O)N(C)C)ccc21 (configuration not stated)	6	3
CC1=C/C(=N/N=c2\sc3ccccc3n2C)CC(C)(C)C1	8	5
O=C(O)Cn1c(SC(F)F)nc2ccccc21	14	6
Cc1csc(N(C(=O)c2ccc(S(=O)(=O)N3CCOCC3)cc2)c2ccccc2)n1	6	6
CCN(CC)S(=O)(=O)c1ccc(Nc2ccc(OC)cc2OC)nc1	16	10
CCN(CC)C(=O)C1CCCN(C2=NS(=O)(=O)c3ccccc32)C1 (configuration not stated)	14	18
COc1ccc(Cl)cc1NC(=O)CN(C)Cc1nc2ccsc2c(=O)[nH]1	8	-2
CCOC(=O)c1oc2ccccc2c1N=Cc1c(O)[nH]c(=O)[nH]c1=O	12	7
O=C(Cn1[nH]c(=O)ccc1=O)OCc1ncc(-c2cccc(Cl)c2)o1	5	5
CCC(=O)Nc1ccc(C(=O)CN2C(=O)C3CC=CCC3C2=O)cc1 (configuration not stated)	-6	-7
Cc1nc2c(cc(OCc3c(C)noc3C)c3ccsc32)s1	11	6

Some of the compounds tested; count on the stated rates, not on these rows.
